HSD17B inh: inhibitors of human HSD17B10 dehydrogenase | Q99714 | recombinant HSD17B10, NADH fluorescence kinetic; many of its hits are not listed in these tables | Potency, µM (top dose mostly 57.1 µM), without a hit: at the top dose activity change, negative = inhibition, hits mostly inhibitors | hit rate 7.6% among 75,000 | AID 893; active = well fitted inhibition curve with a large enough effect; inconclusive = small, poorly fitted or top-dose-only effect; inactive = no such curve, though single readings can be large or run the other way;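 also: the protocol describes HADH2 (HSD17B10) and not the HSD17B4 of the title; nearly all actives have a fitted effect of over 70% in size; most hits overshoot -100% by far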
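Activity followed as NADH fluorescence increase (ex 360, em 450 nm) every 30 seconds for 4 min, using final 90 uM beta-hydroxybutyryl CoA and 1 mM NAD+. Recombinant His-tagged enzyme, 20 nM, pH 9.0 Tris buffer, 15 min compound preincubation.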
* = called active by the depositor; ? = inconclusive; [ ] = dose if it differs, or a comment. % is scaled to controls: 0 for no effect and ±100 for the full control effect; potency is read from the fitted curve at half-maximal effect. The list is partial; rates above refer to the full screens.

Structure,HSD17B inh
COCCN(C(=O)CN1CCc2ccccc2C1)c1c(N)n(Cc2ccccc2)c(=O)[nH]c1=O,5%
CC(NC(=O)C1CCC1)c1ccccc1 (stereo not drawn),5%
O=C(NCc1ccco1)C(c1ccco1)N(C(=O)Cn1nnc2ccccc21)c1ccc2c(c1)CCC2 (stereo not drawn),-14%
CCc1ccc(S(=O)(=O)NCc2cn3c(C)csc3n2)s1,-8%
O=C(c1oc2ccccc2c1CSCc1ccccc1)N1CCN(c2ncccn2)CC1,-9%
COc1cccc(C2=NO[C@@H]3C(=O)N(Cc4ccccc4)C(=O)[C@H]23)c1OC,-7%
c1ccc(-c2ccc(OCCCn3cncn3)cc2)cc1,-6%
Cc1cc(N2CCN(c3ccccc3)CC2)nc(NCc2ccccc2)n1,3%
C[C@H](C(=O)c1ccncc1)c1ccccn1,8%[11.4 µM]
CCn1c2c(c3cc(Cl)ccc31)CCCC2=O,?
COc1ccc(C(=O)N2CCC3(CCCN(c4ccc(-c5ccccc5)cc4)C3)CC2)cc1,?
O=C(CCSc1nc(-c2ccco2)cc(C(F)(F)F)n1)Nc1ccc2c(c1)OCO2,5%
OC(C#CCN1CCCCC1)c1ccccc1 (stereo not drawn),0%
Cc1ccc(-c2noc(CCC(=O)NCCCN3CCN(c4ccc(F)cc4)CC3)n2)cc1,8%
CC1Cc2cc(/C(O)=C3/C(=O)C(=O)N(CCCn4ccnc4)C3c3ccco3)ccc2O1 (stereo not drawn),6%
O=C(Nc1ccccn1)Nc1cccs1,-11%
C=CCn1c(C)nc2c(c1=O)c1nc3ccccc3nc1n2-c1ccc(C)cc1,3%
COc1cccc(CNC(=O)C2CCN(c3cnccn3)CC2)c1,-3%
C/C=C/C1Oc2ccc(OC)cc2N2C(=O)C(C)C(OCOC)C12 (stereo not drawn),6%[11.4 µM]
COc1ccc(-c2noc(CCC(=O)N3CCN(c4cccc(C(F)(F)F)c4)CC3)n2)cc1,-12%
O=C(O)c1ccccc1Nc1cccc(C(F)(F)F)c1,-20%
O=C(CSCSCC(=O)Nc1ccc2c(c1)OCO2)Nc1ccc2c(c1)OCO2,2%
CC(=O)Nc1cccc(NC(=O)c2cc(C)on2)c1,2%
CC(C)Oc1ccc(C2CC(=O)NC3=C2C(=O)CCC3)cc1 (stereo not drawn),0%
Cc1ccc(S(=O)(=O)NCCC(=O)Nc2ccc3c(c2)OCO3)cc1,3%
Cc1cc(=O)[nH]c2c1c(=O)[nH]n2C1CC(C)N(C)CC1C (stereo not drawn),-4%
Cc1ccc(S(=O)(=O)Nc2ccccc2C(=O)c2ccc(C)c(C)c2)cc1,?
CCOCCCNC(=O)N[C@@H](Cc1ccccc1)C(=O)OC,3%
Cn1nc(-c2ccc(Cl)cc2)c2cc(C(=O)NC3CC3)sc21,-15%
O=C(Nc1ccccc1N1CCN(C(=O)c2ccc(Cl)cc2)CC1)c1ccc2c(c1)OCO2,-18%

Continuation:
Structure,HSD17B inh
O=C(NC1CCCCC1)c1cc2nc(-c3ccco3)cc(C(F)(F)F)n2n1,?
O=S(=O)(Nc1ccc(Cc2ccncc2)cc1)N1CCCC1,0%
COc1ccc(CNC(=O)[C@H](C)[C@@H]2C[C@@]2(C)[C@@H](NC(=O)OCc2ccccc2)c2ccccc2)cc1OC,2%
Cn1cnnc1SCC(=O)N(Cc1ccc2c(c1)OCO2)C1(C(=O)NC2CCCCC2)CCCC1,6%
CCOCCCNC(=O)C1CC(=O)N(C2CCCC2)C1 (stereo not drawn),-8%
Cn1c(Cn2nnc3ccccc32)nnc1SCC(=O)NCc1ccc2c(c1)OCO2,14%
Cc1ccccc1C(OCC(O)CN1CCCCC1CCO)c1ccccc1 (stereo not drawn),5%
CCC(=O)N1CCN(CCN=CC2=C(O)CC(c3cccs3)CC2=O)CC1 (stereo not drawn),7%
Cc1ccc(-c2cc(C(=O)O)n[nH]2)o1,-1%
COc1ccc(-n2c(CSc3nc(C)cc(C)n3)nnc2SCC(=O)Nc2nccs2)cc1,5%
CCC1Oc2ccccc2N(CC(=O)NCCN2C(C)CCCC2C)C1=O (stereo not drawn),10%
O=C(Nc1ncc2c(n1)CC(c1ccco1)CC2=O)c1ccccc1 (stereo not drawn),-1%
Cc1ccc(NS(=O)(=O)c2ccc3c(c2)c(=O)n(C)c(=O)n3C)cc1F,7%
COC(=O)c1ccc(NC(=O)CNC(=O)C2CCCCC2)c(C)c1,4%
CC1CCCC(C)N1C(=O)c1cc(F)c(F)cc1Cl (stereo not drawn),-3%
O=C(c1cccs1)N1CCC(c2ccccc2)C1 (stereo not drawn),2%
O=C(O)C1CCCN1S(=O)(=O)c1ccc2[nH]c(=O)c(=O)[nH]c2c1 (stereo not drawn),32µM*
COc1cc(CN2CCSCC2)cc(OC)c1OC,-2%
Cn1cccc1C(=O)N1CCC[C@@]2(CCN(Cc3cc(C(F)(F)F)cc(C(F)(F)F)c3)C2)C1,-4%
COC(=O)c1c(C)c2c(c(C)c1O)OC(=O)c1c(C)c(Cl)c(O)c(Cl)c1O2,-10%
c1csc(CN2CCN(Cc3cccs3)C2c2cccs2)c1,2%
O=C(CSc1nc2cc(Cl)ccc2s1)N1CCN(C(=O)c2ccco2)CC1,9%
CCN(C(=O)c1cccc(F)c1)c1ccccc1C,1%
Cc1cccc(C)c1-n1nnnc1S(=O)(=O)Cc1ccccc1Cl,2%
Cc1nc2c(cc(Oc3ccc(S(=O)(=O)N4CCOCC4)cn3)c3ccsc32)s1,?
COc1ccc(OCc2nnc(SCC(=O)O)n2N)cc1,4%
Cc1nnc(SCc2ccccc2F)n1NCc1cccs1,-3%
COc1ccc(Cn2c(C)nc3c(c2=O)c2nc4ccccc4nc2n3Cc2ccco2)cc1,25µM*
Cn1c(=O)c2c(nc(SCC(=O)NC3CCCCC3)n2C)n(C)c1=O,-5%
Cc1nn(CC(=O)Nc2ccc3c(c2)oc2ccccc23)c(=O)c2ccccc12,-12%

Part of the list above, field by field:
> C=CCn1c(C)nc2c(c1=O)c1nc3ccccc3nc1n2-c1ccc(C)cc1
  HSD17B inh: 3%
> COc1cccc(CNC(=O)C2CCN(c3cnccn3)CC2)c1
  HSD17B inh: -3%
> C/C=C/C1Oc2ccc(OC)cc2N2C(=O)C(C)C(OCOC)C12 (stereo not drawn)
  HSD17B inh: 6%[11.4 µM]
> COc1ccc(-c2noc(CCC(=O)N3CCN(c4cccc(C(F)(F)F)c4)CC3)n2)cc1
  HSD17B inh: -12%

Additional records
Structure,HSD17B inh
COc1ccccc1N1CCN(C(=O)CN(Cc2ccc(Cl)cc2)S(C)(=O)=O)CC1,-2%
Cc1cc(C(C)(C)CC(C)(C)C)ccc1OCCOCC[N+](C)(C)Cc1ccccc1,-1%
Cc1cccc(N2CCN(S(=O)(=O)c3ccc4c(c3)CCN4C(=O)CCC(=O)O)CC2)c1C,-4%
COc1ccccc1C(=O)n1nc(-c2cccnc2)nc1N,-9%
O=c1oc2ccccc2c(N2CCCCC2)c1CN1CCCCC1,-25%
O=C(CCC(=O)c1cccs1)OCc1nc2ccccc2s1,1%
CS(=O)(=O)N1CCN(C(=O)c2cc(-c3cccs3)nc3ccccc23)CC1,25µM*
O=C(c1ccccc1Br)N1CCN(c2ccccc2)CC1,1%
O=C(NCCc1ccco1)c1nn(Cc2ccccc2)c(=O)c2ccccc12,-14%
CCC1CCCCN1CCCNC(=O)c1ccc(CS(=O)(=O)Cc2ccccc2F)o1 (stereo not drawn),6%
CCCCCC(=O)Nc1ccc2oc(-c3cccnc3)nc2c1,3.2µM*
Cc1ccc(N(Cc2ccccc2)Cc2ccccc2)cc1,3%[11.4 µM]
CCOc1ccc(-n2cc(C(=O)NCc3ccco3)c3cc(OC)c(OC)cc3c2=O)cc1,-24%
COC(=O)C1=C(C)NC(=O)NC1C1CC=CCC1 (stereo not drawn),3%
Cc1onc(-c2ccccc2Cl)c1C(=O)N1CCN(C(=O)c2ccco2)CC1,-4%
COC(=O)N1CCC2(CCCN(C(=O)Nc3ccccc3)C2)CC1,0%
CCCn1c(N2CCN(C(=O)N3CCCCC3)CC2)nc2ccccc21,0%
COc1ccccc1C(=O)N1CCN(S(=O)(=O)c2ccccc2)CC1,13%
CCOc1cc(N2CCOCC2)c(OCC)cc1NC(=O)CN1CCc2ccccc2C1,-13%
C[N+](C)(C)CCCCCC[N+](C)(C)C,-5%
CCN(CC)c1ccc(CNC23CN4CN(CN(C4)C2)C3)cc1,-2%
CS(=O)(=O)N1CCc2cc(C(=O)N3CCOCC3)ccc21,6%
CCOC(=O)c1nn(-c2ccc3c(c2)OCO3)cc1O,32µM*
Cc1noc(C)c1C(=O)OCC(=O)NC(=O)NC12CC3CC(CC(C3)C1)C2,6%
COc1ccccc1N(CC(=O)Nc1ccc2c(c1)OCO2)S(=O)(=O)c1ccccc1,-3%
COc1ccc(-c2cc(=O)c3ccccc3s2)cc1,?
CCN1CCN(c2ncc3c(n2)CC(c2ccc(OC)c(OC)c2)CC3=O)CC1 (stereo not drawn),-4%
CCCN(c1nc(C)cc(OC)n1)S(=O)(=O)c1ccccc1,-6%
CC(Nc1ccc(Br)cn1)c1cc(Cl)ccc1O (stereo not drawn),-8%
CCOc1ccc(N(CC)C(=O)COc2cc(=O)n(C)c3ccccc23)cc1,-1%

Reprinted from the part before: two compounds, followed by the next part.
Structure,HSD17B inh
CC(Nc1ccc(Br)cn1)c1cc(Cl)ccc1O (stereo not drawn),-8%
CCOc1ccc(N(CC)C(=O)COc2cc(=O)n(C)c3ccccc23)cc1,-1%
Cc1nc(Nc2ccccc2)[nH]c(=O)c1CCC(C)C,-4%
CCOC(=O)N1CCN(C(=O)C2CC(c3cc(OC)ccc3OC)=NO2)CC1 (stereo not drawn),?
COc1cccc(C2=NOC(C(=O)NC(C)(C)C)C2)c1 (stereo not drawn),5%
O=C(NC1CCS(=O)(=O)C1)c1ccc(S(=O)(=O)NCC2CCCO2)cc1 (stereo not drawn),4%
O=C(Nc1ccc(NC(=O)c2ccco2)cc1)c1cnccn1,20%
CCCCn1c(SCc2nnc(-c3ccccc3)o2)nc2c1c(=O)n(C)c(=O)n2C,0%
CC(C)c1nc2sc3c(NCc4ccco4)ncnc3c2c2c1COC(C)(C)C2,16%
CC(=O)c1ccc(N2CCN(C(=O)C3CCCN(S(=O)(=O)c4cnc[nH]4)C3)CC2)cc1 (stereo not drawn),?
COC(=O)c1ccc(C(NC(=O)OCc2ccccc2)/C(F)=C/[C@@H](C)C(=O)NCCO)cc1 (stereo partly drawn),-2%
CCCc1cc(-c2ccc(O)c(OCC)c2)c(C#N)c(N)n1,-22%
CC(C)OC(=O)CSc1nnc(-c2cccnc2)n1Cc1ccccc1,-3%
Cc1n[nH]c(C)c1S(=O)(=O)N(CC(=O)N1CCc2ccccc21)c1ccc(C(C)C)cc1,0%
COc1cccc(-c2nnc(SCC(N)=O)n2-c2ccc(Cl)cc2)c1,-3%
Nc1nc2n(n1)C(c1cccs1)CC(c1ccccc1)N2 (stereo not drawn),1%
COc1ccc(-n2cnc3cc(NCc4cccs4)ccc32)cc1,-8%
CSc1ccc(Cl)c(C(=O)NCC(C)C)c1,-2%
Nc1ccc(C(=O)c2ccc3c(c2)OCCO3)cc1N,1%
COc1ccc(C2(O)CCN(C(=O)c3ccc4c(c3)OCO4)CC2)cc1,7%
CCOC(=O)C1=C(N)OC2=C(C(=O)CC(C)(C)C2)C1c1ccco1 (stereo not drawn),-5%
Cc1cc(C)nc(Sc2ccc3nnnn3n2)n1,0%
O=C(CSc1nnc(Cc2cc(=O)[nH]c(=O)[nH]2)n1-c1ccc(Cl)cc1)NCC1CCCO1 (stereo not drawn),-5%
O=c1nc(NCc2ccco2)sc2ncccc12,11%
CN(C)C(=O)c1ccc(-c2cncnc2NCCN2CCOCC2)cc1,7%
Nc1nnc(SCC(=O)Nc2ccccc2N2CCOCC2)s1,-16%
Cc1c(NC(=O)c2cccc(NC(=O)c3ccco3)c2)cccc1C(=O)O,-1%
CCOC(=O)N1CCC(NC(=O)c2cccc3c2C(=O)N(CCOC)C3)CC1,-3%
Cn1nnc2cc(C(=O)Nc3cccnc3)ccc21,-3%
Cc1ccc(S(=O)(=O)CC(=O)Nc2ccc(S(=O)(=O)Nc3onc(C)c3C)cc2)cc1,0%
CC(C)/C=C1\CCCCC1N(C)C(=O)NC(C)C (stereo not drawn),2%
CC(=O)C1C(c2cccc(F)c2)NC(=O)NC1(O)C(F)(F)F (stereo not drawn),13%

New compounds follow.
Structure,HSD17B inh
COc1ccc(CCC(=O)NCc2cnn(C)c2)cc1,16µM*
Cc1cc2ncn(/N=C/c3cc(Br)ccc3O)c2cc1C,29%
O=C(CCN1Cc2ccccc2C1)c1ccc2c(c1)OCCO2,-7%
CCCn1c(C)nc2c(NC(C)CN(C)C)nc(C)nc21 (stereo not drawn),10%
COc1cccc(N(C(=O)c2ccn[nH]2)C2(C(=O)Nc3c(C)cccc3C)CCCCC2)c1,0%
CCOC(=O)c1c(NC(=O)c2csc(C)c2)sc(C(C)=O)c1C,183%[activator]
Cc1[nH]nc2c1C(C(C)C)C(C#N)=C(N)O2 (stereo not drawn),6%
